# HNF4A DNA FP = change in binding of human HNF4 alpha to DNA. P41235. HNF4a-FITC DNA binding, fluorescence polarization, 1 h. activity change, % at 10 µM. hit rate 0.3% among 360,000; in the data active = activity change above about 30%, passing the limit was not always enough;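 note: controls were the assay level and a saturating level of protein; the project sought stronger binding though the title names inhibitors; some compounds called inactive have numbers as strong as hits; positive values seem to mean higher polarization but the record does not say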
# LANA-H2A inh = blocks KSHV LANA binding to histone H2A/H2B; Q9QR71; cell-free LANA-H2A/H2B peptide, fluorescence polarization; inhibition, % (concentration not given with the values); hit rate 0.6% among 320,000; AID 2629; in the data active = inhibition mostly above about 10%, no sharp cut-off; inactive = mostly below about 6.7%;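 note: stock transfer was 7.5 nL into about 10 µL; 0% = median of vehicle wells and 100% = median of positive control wells; one replicate is shown; the record names a cut of 25% in any replicate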
# Ecoli growth = blocks Escherichia coli growth. OD600 absorbance (concentration not given with the values). hit rate 0.21% among 330,000. AID 1053175. OD600, 23 h; active compounds read low;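 active = OD600 absorbance below the run mean of sample wells minus 3.6 SD, in any replicate, cut at about 0.56 in these data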;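 note: stock transfer was 300 nL into about 60 µL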
# Bfl-1 A1 inh = inhibitors of the anti-apoptotic protein A1, read as caspase activation. MEF A1-2A-BIM cells, Caspase-Glo 3/7 luminescence, 3 h; percent of clofoctol response, vehicle zero. caspase activation, % (no concentration beside the values). AID 2462. hit rate 0.066% among 330,000;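 active = over half of replicate activation scores above 10%, or exactly half above 10 with the replicate mean above 10; inconclusive = replicate mean below 10 yet half the replicates above 10; inactive = over half of replicates below 10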;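 note: wells of about 30 µL received 50 nL stock; many hits fall short of the cut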
# Vif TR-FRET = HIV-1 Vif–A3G interaction blockers – biochemical, TR-FRET, GST-Vif 1-94, biotin-A3G peptide, dose response retest, primary screen (AID 1117319). hit rate 0.57% among 260,000. inhibition, %; hits with a dose series show IC50 in µM. TR-FRET GST-Vif / biotin-A3G peptide binding; higher % means a stronger effect; test concentration not given here; strong numbers were not always called active;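 active = above the screen mean plus three standard deviations and confirmed in dose response; inconclusive = results disagree or hit not tested in dose response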;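 note: Vif residues 1-94 fused to GST binding biotinylated APOBEC3G peptide 110-148; 0% = full assay without inhibitor and 100% = GST in place of GST-Vif; retest series ran down from 100 µM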
# UCH37 DUB inh = inhibitors of human deubiquitinating enzyme UCH37. inhibition, % (concentration not given with the values). AID 588478. purified proteasome/UCH37, Ub-AMC cleavage fluorescence. hit rate 0.33% among 330,000;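 active = mean of two replicates above 20%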;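 note: 0% = compound-free wells with enzyme and 100% = wells lacking proteasome; stock transfer was 100 nL into about 20 µL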
#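 Material: Human UCH37 enzyme supplied as purified proteasome complex | Schedule: 30 min preincubation with enzyme, 25 min cleavage at room temperature | Detection: AMC fluorescence 355/460 nm | Measure: % inhibition of Ub-AMC cleavage fluorescence | Controls: Wells without proteasome as full block, compound-free enzyme plus substrate as uninhibited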
# B2AR ag = human beta-2 adrenergic receptor agonism by FAP. P07550. Am2.2-beta2AR cells, FAP receptor internalization, flow cytometry; reference of the scale not given here. response, % (test concentration not listed). hit rate 0.43% among 340,000;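 active = response above a set limit, near 3 SD of response in nonfluorescent compounds, cut at about 42% in these data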;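 note: stock transfer was 100 nL into about 11 µL; a reference agonist was the positive control; negative values mostly stem from fluorescent compounds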
# Active calls of the source: *; ? = inconclusive; . = not tested or not shown; & = joins results of further samples.
SMILES,HNF4A DNA FP,LANA-H2A inh,Ecoli growth,Bfl-1 A1 inh,Vif TR-FRET,UCH37 DUB inh,B2AR ag
Cc1cc(NC(=O)CSc2nnc(-c3ccc4c(c3)OCCO4)o2)no1,3.0,-1.1,0.821,-1.5,18.0%,2.2,-13.7
Cn1cccc1/C=N/NC(=O)Cn1cnc2ccccc21,-0.3,.,.,-0.2,-0.5%,.,8.9
COc1ccc(NC(=O)c2ccccc2NC(=O)CSc2ccccc2)cc1,0.0,-1.4,0.704,-0.6,14.2%,-2.8,-4.3
CC(=O)N1CCCc2cc(S(=O)(=O)CCC(=O)N3CCN(c4ccccc4)CC3)ccc21,2.5,-5.6,0.708,-0.4,8.6%,5.8,-4.5
COc1ccc([C@H]2CC(=O)C=C(c3cc4ccccc4s3)C2)cc1OC,3.1,-2.2,.,-0.3,.,0.3,-0.8
CC1(C)C(=O)Nc2ccccc2N1C(=O)CSc1nnc2ccccn12,-2.3,-1.2,0.665,1.0,13.0%,-0.7,13.9
CC(C(O)c1ccc(O)cc1)N1CCC(Cc2ccccc2)CC1 (stereo unspecified),-2.1&2.5&-5.8,2.3&-10.5,0.673&0.678&0.654,0.7&0.4,5.0%&3.2%,-1.0&1.0&1.6,-10.1&-2.2&-0.3
O=C(CS(=O)(=O)c1ccccc1)Nc1nccs1,0.9,-4.1,0.623,0.8,.,1.7,-4.8
COc1ccc(-c2nnc(SCC(=O)N/N=C/c3ccccc3C(=O)O)n2-c2ccc(Cl)cc2)cc1,-3.9,0.4,.,-0.3,.,.,-4.0
O=C1CCCC(=O)N1c1ccc(O)cc1,-0.7,5.1,0.747,0.8,6.5%,1.0,10.6
O=C(NC1CCCCC1)c1cc([N+](=O)[O-])ccc1N1CCCC1,3.7,1.4,0.714,0.2,0.5%,5.5,-2.4
CC(C)C[C@H](N)c1nnc(SCC(=O)Nc2ccc(Br)cc2)o1,-6.7,-1.3,0.625,-0.7,.,2.6,11.0
CN1C(=O)C(C)(C)c2cc(S(=O)(=O)N3CCC(C(=O)Nc4ccc(Cl)cc4)CC3)ccc21,4.1,-3.1,0.806,0.4,.,5.8,-7.6
C=CCN(CC=C)S(=O)(=O)c1ccc(NC(=O)COc2ccccc2OC)cc1,2.8,-1.3,0.694,1.4,12.7%,4.7,8.0
C=CCOc1ccc(C2/C(=C(/O)c3ccc4c(c3)CC(C)O4)C(=O)C(=O)N2CCCN2CCOCC2)cc1 (stereo unspecified),0.5,2.0,0.692,-0.7,1.8%,7.0,-8.9
COc1cccc(-n2c(SCC#N)nnc2-c2cnccn2)c1,-6.2,4.3,0.657,0.3,?,-2.4,-1.3
Cc1cc(Br)ccc1NC(=O)C1CCN(S(=O)(=O)c2cnc[nH]2)CC1,-2.7,-0.3,0.712,1.6,.,1.6,3.1
CCOC(=O)c1cc(=O)c2ccc(OCc3ccccc3)cc2o1,-0.7,4.9,0.676,-0.7,-5.8%,0.0,9.2
CCC(=O)N1c2ccc(S(=O)(=O)N3CCCC3)cc2CC1C (stereo unspecified),3.3,0.0,0.708,0.1,-0.6%,2.9,-3.9
COc1cc(-c2ccccc2)nc(N)n1,4.7,-3.4,0.714,-3.7,-3.0%,3.5,12.5
S=c1nc(NCCc2ccccc2Cl)c2ccccc2[nH]1,-0.9,-2.9,0.696,-0.7,-11.2%,2.1,-13.1
CN(Cc1ccccc1)C(=O)CCCn1c(=O)c2cccn2c2cccnc21,-0.5,2.7,0.682,-0.6,-5.2%,-2.3,-16.6
CC(C)Cc1nc2oc3c(Cl)ncnc3c2c2c1CCCC2,0.3,-0.8,0.642,0.3,-0.5%,0.9,25.2
CC(C)C(NC(=O)C(NC(=O)C1O[C@@H]2OC(C)(C)O[C@@H]2[C@H]2OC(C)(C)O[C@@H]12)C(C)C)C(=O)O (stereo partly specified),1.3,0.6,0.704,0.4,-3.4%,5.1,7.6
CCN(C(=O)COC(=O)c1cc(=O)c2ccccc2o1)c1c(N)n(Cc2ccccc2)c(=O)[nH]c1=O,2.4,-0.4,0.667,-0.1,-2.3%,4.1,-4.6
# Later entries.
SMILES,HNF4A DNA FP,LANA-H2A inh,Ecoli growth,Bfl-1 A1 inh,Vif TR-FRET,UCH37 DUB inh,B2AR ag
COC(=O)c1cc2occc2n1Cc1ccc(Cl)cc1,-1.6,2.3,0.67,1.3,-2.0%,2.2,7.2
Cc1ccc(S(=O)(=O)N2CCCCC2)cc1NC(=O)CSc1ncnc2ccccc12,0.5,.,0.728,0.8,-16.7%,7.5,-15.6
N#CCCN1CCN(Cn2c3ccccc3c3ccccc32)CC1,3.5,1.3,0.71,2.7,20.9%,1.8,-5.8
Cc1ccc(-c2nnc(-c3cccs3)o2)cc1,2.8,-2.4,0.658,-6.6,11.4%,-11.5,-7.1
Cc1ccc2cc(CCNC(=O)c3ccc(C)c([N+](=O)[O-])c3)c(=O)[nH]c2c1,1.0,-4.5,0.706,2.3,-2.7%,4.2,-0.9
COc1ccccc1C(=O)NC(=O)COC(=O)c1cccc(OC(F)F)c1,-4.3,-10.4,0.622,0.5,2.8%,-0.1,1.9
COc1ccccc1-c1n[nH]c(=S)o1,-5.3,-1.2,0.678,0.8,-13.2%,-1.9,1.4
NS(=O)(=O)c1ccc(CNC(=O)c2ccc(NS(=O)(=O)c3cccs3)cc2)cc1,-0.1,1.8,0.69,0.6,.,0.7,8.2
O=c1[nH]n(-c2ccc(Cl)cc2)c(=O)c(Cl)c1Cl,-1.1,-2.2,0.72,0.3,?,6.3,4.9
O=C(O)C1CCN(C(=O)COc2ccc(Br)cc2)CC1,-1.4,7.8,0.699,-0.9,16.4%,6.0,-3.3
CCc1nc2nc(C)c(NS(=O)(=O)c3ccc(Cl)cc3)c(=O)n2[nH]1,-0.6,-8.9,0.672,-0.3,.,1.2,10.4

# Gathered by group, those above containing a Cl atom
SMILES,HNF4A DNA FP,LANA-H2A inh,Ecoli growth,Bfl-1 A1 inh,Vif TR-FRET,UCH37 DUB inh,B2AR ag
COc1ccc(-c2nnc(SCC(=O)N/N=C/c3ccccc3C(=O)O)n2-c2ccc(Cl)cc2)cc1,-3.9,0.4,.,-0.3,.,.,-4.0
CN1C(=O)C(C)(C)c2cc(S(=O)(=O)N3CCC(C(=O)Nc4ccc(Cl)cc4)CC3)ccc21,4.1,-3.1,0.806,0.4,.,5.8,-7.6
S=c1nc(NCCc2ccccc2Cl)c2ccccc2[nH]1,-0.9,-2.9,0.696,-0.7,-11.2%,2.1,-13.1
CC(C)Cc1nc2oc3c(Cl)ncnc3c2c2c1CCCC2,0.3,-0.8,0.642,0.3,-0.5%,0.9,25.2
COC(=O)c1cc2occc2n1Cc1ccc(Cl)cc1,-1.6,2.3,0.67,1.3,-2.0%,2.2,7.2
O=c1[nH]n(-c2ccc(Cl)cc2)c(=O)c(Cl)c1Cl,-1.1,-2.2,0.72,0.3,?,6.3,4.9
CCc1nc2nc(C)c(NS(=O)(=O)c3ccc(Cl)cc3)c(=O)n2[nH]1,-0.6,-8.9,0.672,-0.3,.,1.2,10.4

# Assay outcomes: PubChem, several laboratories
